Source: PubChem (National Center for Advancing Translational Sciences (NCATS))
D2 potentiator – Beta-Arrestin HTS for Positive Allosteric Modulators of the Human D2 Dopamine Receptor: Potentiators; DiscoveRx D2 beta-arrestin cells, luminescence, 90 min; 100% = 57 uM dopamine signal; 0.23% of 360,000 active; D(2) dopamine receptor (Homo sapiens), P14416; potentiation, % (no concentration beside the values); active = potentiation of 50% or more; inconclusive = 30% to 50%; inactive = 30% or less;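 note: compound concentration not given in the record; tested on top of an EC20 dose of dopamine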
Target sequence (P14416 whole entry, looked up): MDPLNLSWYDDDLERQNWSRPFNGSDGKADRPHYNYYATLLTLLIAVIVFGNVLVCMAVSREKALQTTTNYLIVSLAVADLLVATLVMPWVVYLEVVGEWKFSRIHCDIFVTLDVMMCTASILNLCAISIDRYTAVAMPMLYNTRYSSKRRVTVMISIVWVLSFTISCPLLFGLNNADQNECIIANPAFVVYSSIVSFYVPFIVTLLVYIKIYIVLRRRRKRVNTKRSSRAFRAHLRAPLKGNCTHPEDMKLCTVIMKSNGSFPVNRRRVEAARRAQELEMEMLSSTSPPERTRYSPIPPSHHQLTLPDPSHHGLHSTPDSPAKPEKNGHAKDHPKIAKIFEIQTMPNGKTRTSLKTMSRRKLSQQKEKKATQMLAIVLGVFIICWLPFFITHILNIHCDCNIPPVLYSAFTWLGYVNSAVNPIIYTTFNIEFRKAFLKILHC
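PathHunter beta-arrestin assay in DiscoveRx D2 cells. Compounds were added with an EC20 of dopamine (50 nM final) for 90 min at 37 deg C. Luminescence was read 1 h after detection reagent, with 57 uM dopamine as the EC100 control.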
TRPML1 inh – qHTS for Inhibitors of the Human Mucolipin Transient Receptor Potential 1 (TRPML1); Mucolipin-1 (Homo sapiens), Q9GZU1; TRPML1-inducible cells, Ca2+ dye fluorescence, FDSS; hits give low values; inhibition of EC80 agonist-evoked calcium signal; activity change, negative = inhibition, % (no concentration beside the values); 0.02% of 390,000 active; in the data active means activity change below about -50%; inconclusive means about -30% to -50%; inactive means above about -30%;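 note: stimulus is agonist 54-4 at its EC80 concentration; % is set by controls: 0 for no effect and ±100 for the full control effect; compound concentration not given in the record; the text of the record puts the active cut at -80%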
Target sequence (Q9GZU1 whole entry, looked up): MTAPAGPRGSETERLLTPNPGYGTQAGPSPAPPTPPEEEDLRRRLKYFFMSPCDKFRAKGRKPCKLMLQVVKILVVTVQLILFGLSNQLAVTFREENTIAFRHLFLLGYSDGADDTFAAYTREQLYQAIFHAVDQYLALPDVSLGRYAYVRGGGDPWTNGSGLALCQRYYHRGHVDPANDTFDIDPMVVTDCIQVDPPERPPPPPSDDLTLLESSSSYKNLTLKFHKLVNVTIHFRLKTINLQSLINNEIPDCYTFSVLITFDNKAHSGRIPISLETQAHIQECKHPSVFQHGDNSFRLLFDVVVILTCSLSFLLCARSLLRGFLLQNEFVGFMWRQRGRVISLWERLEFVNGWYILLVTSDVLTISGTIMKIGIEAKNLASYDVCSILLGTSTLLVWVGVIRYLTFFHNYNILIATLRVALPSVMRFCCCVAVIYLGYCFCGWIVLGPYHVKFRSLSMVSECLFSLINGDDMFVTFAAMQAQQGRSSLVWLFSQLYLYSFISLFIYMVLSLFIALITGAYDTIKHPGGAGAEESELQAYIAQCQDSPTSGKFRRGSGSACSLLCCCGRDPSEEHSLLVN
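Calcium fluorescence in TRPML1-DL cells induced overnight with Tet: a 110 s read after compound pin addition, then a 110 s antagonist read after challenge with 54-4 at 4 uM final (EC80).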
Six1-Eya2 blk – qHTS Assay for Inhibitors of the Six1/Eya2 Interaction. AlphaScreen GST-Six1/His-Eya2 binding, biochemical; hits give low values; control for the full effect not named in the record. 0.56% of 360,000 active. activity change, % (no concentration beside the values). Homeobox protein SIX1 (Homo sapiens) + Protein phosphatase EYA2 (Homo sapiens), …; in the data active = activity change below about -65%; inconclusive = about -30% to -65%; inactive = above about -30%; note: % is set by controls: 0 for no effect and ±100 for the full control effect; compound concentration not given in the record
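AlphaScreen with GST-Six1 and His-Eya2 (5X mix: 250 nM and 500 nM), glutathione donor and nickel acceptor beads; buffer 50 mM Tris pH 8.0, 300 mM NaCl, 1 mM TCEP; 1 h at 37 C in the dark.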
CtBP-E1A inh – qHTS Assay for Inhibitors of the CtBP/E1A Interaction. activity change, % (no concentration beside the values). AlphaScreen GST-E1A/His-CtBP binding, 1536-well; hits give low values; control for the full effect not named in the record. 0.49% of 340,000 active. CtBP / adenovirus E1A interaction (AlphaScreen); in the data active means activity change below about -65%; inconclusive means about -30% to -65%; inactive means above about -30%; note: % is set by controls: 0 for no effect and ±100 for the full control effect; compound concentration not given in the record
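Protein mix (5X: 125 nM each GST-E1A, His-CtBP) was incubated with pinned compound 2 h at 37 deg C in dark, in 50 mM Tris pH 8.0 buffer with 300 mM NaCl. Glutathione donor and nickel acceptor beads followed; AlphaScreen signal read after 1 h.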
TRPML1 agonist – qHTS for Agonists of the Human Mucolipin Transient Receptor Potential 1 (TRPML1); 0.12% of 410,000 active; activation, % (no concentration beside the values); Mucolipin-1 (Homo sapiens), Q9GZU1; TRPML1-expressing cells, Ca2+ dye fluorescence, FDSS; host cell line not named in the record; reference of the full effect not given here; in the data active = activation above about 50%; inconclusive = about 30% to 50%; inactive = below about 30%; note: 0% is about no effect; the text of the record puts the active cut at 80%
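In this qHTS format, compounds were pin-transferred onto Ca8-dye-loaded TRPML1-DL cells induced with Tet overnight, and intracellular Ca2+ fluorescence was recorded kinetically for 110 s after a 10 s baseline. A subsequent 4uM final 54-4 (EC80) addition followed by a second 110 s read served as the antagonist phase.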
TRPV1 PAM – HTS Assay for Compounds that Act as Potentiators of the Vanilloid Receptor 1; potentiation, % at 8.33 µM; TRPV1-expressing cells, Fluo-8 calcium influx, capsaicin EC20 potentiation; host cell line not named in the record; control for the full effect not named in the record; 0.02% of 320,000 active; AID 540277, 2011; active means potentiation above 80%; inconclusive means 30% to 80%; inactive means below 30%; note: 0% is about no effect
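Fluo-8 calcium influx in TRPV1-expressing cells, kinetic read (ex 480/em 520 nm). Compound added and read 3 min for agonist activity, followed by capsaicin at EC20 final and 2 min further read for enhancement.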
* marks the source's active call; other numbers are inactive results; ? = inconclusive; nt = no result given; & = joins results of further samples.

1) Cc1ccc(NC(=O)COC(=O)c2ccc(F)cc2Cl)c(Br)c1
2) CCn1cc(C(=O)O)c(=O)c2cc(F)c(N3CCN(C(=S)NC(=O)c4ccc(Br)cc4)CC3)cc21
3) CCN(c1ccccc1)S(=O)(=O)c1ccc(OC)c(NC(=O)CNCCc2ccccc2)c1
4) COc1ccc(NC(=S)N2CCN(Cc3ccccc3)CC2)c(OC)c1
5) Cc1ccc(S(=O)(=O)N(C)c2nonc2C)cc1

compound no.	1	2	3	4	5
D2 potentiator	-2	-3	-5	-2	-5
TRPML1 inh	-5	-15	15	-5	30
Six1-Eya2 blk	15	-3	-5	-10	9
CtBP-E1A inh	-4	?	-9	-11	8
TRPML1 agonist	1.2	-0.7	3.0	0.1	0.5
TRPV1 PAM	7	0	17	-7	?

6) O=C(N/N=C/c1cccnc1)C(O)c1ccccc1 (centres undefined)
7) CCC(C)NCCC(=O)Nc1ccc(Cl)c(S(=O)(=O)Nc2ccc(Cl)cc2)c1 (centres undefined)
8) CCc1nnc(NC(=O)COc2ccc([N+](=O)[O-])cc2)s1
9) C[C@@H]1CN([C@H](C)CO)C(=O)CCCn2cc(nn2)CO[C@H]1CN(C)C(=O)Nc1ccnc(N2CCOCC2)c1
10) Cc1cc(C)cc(N(CC(=O)NCc2ccco2)S(=O)(=O)c2ccccc2)c1

compound no.	6	7	8	9	10
D2 potentiator	-3	-26	-1	5	-4
TRPML1 inh	25	6	1	8	2
Six1-Eya2 blk	2	8	12	3	-1
CtBP-E1A inh	-6	0	1	-3	3
TRPML1 agonist	3.4	0.9	-0.6	-0.1	1.2
TRPV1 PAM	-3	10	7	nt	-1

11) Cc1ccc(S(=O)(=O)N2CCN(C(=O)COC(=O)c3cccnc3Cl)CC2)c(C)c1
12) C/C(O)=C(\C#N)c1nc2ccccc2[nH]1
13) Cn1cnnc1SCC(=O)Nc1ccc(F)cc1F
14) Cc1ccc(Cn2c(N3CCN(CCO)CC3)nc3c2c(=O)n(C)c(=O)n3C)cc1
15) O=C(c1cccc(F)c1)N1CCN(S(=O)(=O)Cc2ccccc2)CC1

compound no.	11	12	13	14	15
D2 potentiator	-3	-14	-1	-4	-15
TRPML1 inh	-9	-8	-12	-4	-5
Six1-Eya2 blk	-25	-6	0	4	0
CtBP-E1A inh	nt	-2	-4	3	8
TRPML1 agonist	-1.6	-0.7	1.8	0.0	0.5
TRPV1 PAM	8	-3	-5	1	-9

Next section, starting with the last 3 of the part before.
13) Cn1cnnc1SCC(=O)Nc1ccc(F)cc1F
14) Cc1ccc(Cn2c(N3CCN(CCO)CC3)nc3c2c(=O)n(C)c(=O)n3C)cc1
15) O=C(c1cccc(F)c1)N1CCN(S(=O)(=O)Cc2ccccc2)CC1
16) Cc1ccnc2nc(C(=O)OCC(=O)N(C)C3CCCCC3)nn12
17) Cc1cccc(NC(=O)CCN2CCCC(C)C2)c1 (centres undefined)
18) CCOc1ccc2[nH]c(=O)c(CN(CCO)C(=O)c3ccc(OC)c(OC)c3)cc2c1
19) CCOC(=O)c1c(NC(=O)CSc2ncccn2)sc2c1CCN(Cc1ccccc1)C2
20) CSc1ncccc1C(=O)OCC(=O)c1cc(C)n(C)c1C

compound no.	13	14	15	16	17	18	19	20
D2 potentiator	-1	-4	-15	-5	-13	6	-4	-5
TRPML1 inh	-12	-4	-5	0	3	21	28	5
Six1-Eya2 blk	0	4	0	17	2	-1	-21	0
CtBP-E1A inh	-4	3	8	-9	8	0	-17	-5
TRPML1 agonist	1.8	0.0	0.5	-0.4	-0.4	0.5	8.7	2.5
TRPV1 PAM	-5	1	-9	nt	-1	-1	0	nt

21) CCOc1ccc(CN(C)C(=O)c2ccc(NC(=O)CC3SC(N4CCCC4)=NC3=O)cc2)cc1 (centres undefined)
22) COc1cccc2cc(C(C)N(CCCN3CCOCC3)C(=S)Nc3cccc(C)c3C)oc12 (centres undefined)
23) O=C(NCCc1ccccc1)c1ccc2c(c1)OCCCO2
24) COc1cccc(CNC(=O)C2CCCN(S(=O)(=O)c3cccc4nonc34)C2)c1 (centres undefined)
25) COc1ccc(CCC(C(O)C(F)(F)F)S(=O)c2ccccc2)cc1 (centres undefined)

compound no.	21	22	23	24	25
D2 potentiator	-26	-13	-13	5	-3
TRPML1 inh	20	6	10	8	10
Six1-Eya2 blk	-10	11	5	5	-1
CtBP-E1A inh	-3	-7	6	7	11
TRPML1 agonist	0.4	0.8	1.8	-0.2	0.0
TRPV1 PAM	2	-4	-12	-16	-15

Molecules listed so far that have bromine (2):
1) Cc1ccc(NC(=O)COC(=O)c2ccc(F)cc2Cl)c(Br)c1
2) CCn1cc(C(=O)O)c(=O)c2cc(F)c(N3CCN(C(=S)NC(=O)c4ccc(Br)cc4)CC3)cc21

compound no.	1	2
D2 potentiator	-2	-3
TRPML1 inh	-5	-15
Six1-Eya2 blk	15	-3
CtBP-E1A inh	-4	?
TRPML1 agonist	1.2	-0.7
TRPV1 PAM	7	0

Additional compounds:
26) CN=C1S/C(=C\c2ccc(O)c(OC)c2)C(=O)N1C
27) CCn1c(N2CCN(Cc3ccc([N+](=O)[O-])cc3)CC2)nc2ccccc21
28) COc1ccc(CC2(CO)CCN(Cc3cc4ccccc4o3)CC2)cc1
29) NC(=O)c1cc(Cl)ccc1OCC(=O)N1CCCc2ccccc21
30) NC(=O)CNCCC(c1ccccc1)c1ccccc1

compound no.	26	27	28	29	30
D2 potentiator	-12	-4	18	-1	-13
TRPML1 inh	14	8	13	-17	0
Six1-Eya2 blk	-12	0	-11	-6	9
CtBP-E1A inh	-1	nt	-3	4	7
TRPML1 agonist	0.5	-1.3	-0.2	0.2	0.9
TRPV1 PAM	nt	6	-2	5	1

31) CCOC(=O)C1(Cc2ccc(OC)cc2)CCN(C(=O)C2CCCO2)CC1 (centres undefined)
32) Cc1cc([N+](=O)[O-])c(NCCCCCCO)c([N+](=O)[O-])c1
33) Cc1ccc(NC(=O)COC(=O)CCn2c(C)csc2=O)c([N+](=O)[O-])c1
34) CCOC(=O)COc1cc(N)c(Cl)cc1Cl
35) COc1ccccc1-c1oc2ccccc2c1C#CCCCCO

compound no.	31	32	33	34	35
D2 potentiator	-4	13	8	2	-14
TRPML1 inh	16	24	0	-4	6
Six1-Eya2 blk	4	-14	-3	-2	2
CtBP-E1A inh	1	-9	-2	-4	nt
TRPML1 agonist	-0.5	0.2	0.3	0.9	0.1
TRPV1 PAM	-4	nt	?	2	-18

36) N#CC1=C(N)NC(SCc2ccc(Cl)cc2)=C(C#N)C12CCCCC2
37) CC(=O)N(c1ccc(Cl)cc1)c1c[nH]c2ccccc12
38) CSc1oc(-c2cccs2)nc1S(=O)(=O)c1ccccc1
39) COC(=O)c1ccc(Oc2nc3ccccc3n3c(C)nnc23)cc1
40) C#CCN(C[C@@H]1[C@@H](OC(=O)NCc2ccccc2F)[C@@H](OC(=O)NCc2ccccc2F)CN(C(=O)OC(C)C)N1C(=O)OC(C)C)S(=O)(=O)c1ccc(C)cc1

compound no.	36	37	38	39	40
D2 potentiator	2	-1	-11	-3	-2
TRPML1 inh	5	-2	nt	?	0
Six1-Eya2 blk	-8	-8	1	5	2
CtBP-E1A inh	-12	-1	0	-3	-3
TRPML1 agonist	2.3	2.6	nt	0.6	0.4
TRPV1 PAM	4	1	1	nt	nt

41) Fc1cccc(Cc2c(-c3ccccc3)nc3ccc(Cl)cn23)c1
42) CCOc1ccc(NS(=O)(=O)c2ccc(NS(=O)(=O)c3ccc(SC)cc3)cc2)cc1
43) CC(C)CNC(=O)C(=O)NNC(=O)c1ccco1
44) Cc1ccccc1NC(=O)Cn1cc(C(=O)C2CC2)c2ccccc21
45) CCOc1nc(Nc2cc(Cl)ccc2OC)nc(OCC)n1

compound no.	41	42	43	44	45
D2 potentiator	2	0	-3	-2	-37
TRPML1 inh	-3	-11	-1	2	6
Six1-Eya2 blk	20	-4	4	0	4
CtBP-E1A inh	31	-10	nt	10	-2
TRPML1 agonist	2.7	1.4	-0.2	1.4	-1.1
TRPV1 PAM	nt	-6	4	-31	-12

46) CN1CCN(c2cc(-c3ccccc3)nc3cc(-c4ccc(F)cc4)nn23)CC1
47) COc1ccc(S(=O)(=O)CCC(=O)Nc2cc(C)ccc2OC)cc1
48) Cn1nc([N+](=O)[O-])nc1Oc1ccccc1
49) COc1ccc(C)cc1NC(=O)c1ccc(CN2CCc3ccccc3C2)cc1
50) COc1ccc(NC(=O)c2c3c(nc4ccccc24)CCN(Cc2ccccc2)C3)c(OC)c1

compound no.	46	47	48	49	50
D2 potentiator	-38	-8	3	-14	-12
TRPML1 inh	25	-9	-4	-8	1
Six1-Eya2 blk	3	3	4	-8	-20
CtBP-E1A inh	1	nt	3	0	nt
TRPML1 agonist	3.4	0.7	-0.2	1.7	1.8
TRPV1 PAM	-10	-2	6	-5	10

51) O=C(/C=C/c1ccc([N+](=O)[O-])cc1)OCC(=O)N1CCOCC1
52) CN1CC(c2ccccc2)C2(COc3ccccc3C2=O)C12C(=O)Nc1ccccc12 (centres undefined)
53) CS(=O)(=O)c1cccc(NC(=O)C2CC2)c1
54) O=C(CSc1ccc(Cl)cc1)Nc1ccccc1
55) OC[C@@H]1CCCN1Cc1cn(-c2ccccc2)nc1-c1ccc2c(c1)OCO2

compound no.	51	52	53	54	55
D2 potentiator	17	-9	-6	-19	-11
TRPML1 inh	-11	-12	-1	3	3
Six1-Eya2 blk	5	-10	10	27	-3
CtBP-E1A inh	-25	-10	3	0	nt
TRPML1 agonist	-0.4	0.5	-0.2	-0.3	0.1
TRPV1 PAM	nt	-9	7	nt	-2

56) Cc1cccn2c(=O)nc(SCC(=O)NCCc3ccccc3)nc12
57) Cc1cccc(C(=O)Nc2ccccc2C(=O)OCc2c(C)noc2C)c1
58) CCCn1cc(S(=O)(=O)c2ccc(F)cc2)c(=O)c2cc(OCC)ccc21
59) CN1CCN(C=Nc2nc3ccccc3nc2N2CCCC2)CC1
60) CC(=O)Nc1nonc1NC(=O)CSc1ncn[nH]1

compound no.	56	57	58	59	60
D2 potentiator	-7	-4	-6	-2	-4
TRPML1 inh	-6	7	-5	14	26
Six1-Eya2 blk	2	12	-2	14	-3
CtBP-E1A inh	11	14	2	-2	0
TRPML1 agonist	0.0	-0.5	1.0	-1.2	0.7
TRPV1 PAM	8	-2	-11	12	1

61) Cc1c(Cl)cnc(NC(=O)COC(=O)c2cc3c(s2)CCC(C)C3)c1Cl (centres undefined)
62) O=c1c2ccccc2nc(SCc2ccccc2Cl)n1Cc1ccccc1
63) COc1ccccc1C(=O)Nc1ccc2c(c1)nc(CN1CCCCC1)n2C
64) COCCNC(=O)/C(C#N)=C/c1c(N2CC(C)OC(C)C2)nc2ccccn2c1=O (centres undefined)

compound no.	61	62	63	64
D2 potentiator	-4	-11	-19	-2
TRPML1 inh	1	19	3&5	-3
Six1-Eya2 blk	-1	9	-7	0
CtBP-E1A inh	nt	10	5	0
TRPML1 agonist	1.3	-0.4	-0.4&0.1	-1.1
TRPV1 PAM	-3	7	5	-5
